# Tg IFNy HTS: inhibitors of Toxoplasma gondii growth with IFN-gamma; Toxoplasma gondii growth in IFN-gamma-treated host cells; stronger effect = lower value; reference of the scale not given here; AID 1259416; activity change, negative = inhibition, %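 (about 20 µM by stock and volumes)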; 69,000 compounds, 3.8% hits;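 active means below -70%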;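 further: host cells are HeLa cells infected with Toxoplasma gondii; parasite growth read as luciferase light; one replicate is shown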
# * marks the source's active call; other numbers are inactive results; i = inactive; & = joins results of further samples. These rows are one share of the data (hit frequency here may not be typical).
SMILES,Tg IFNy HTS
NC(=O)c1csc(-c2ccc(F)cc2F)n1,-107*
Cc1nc2ccccc2nc1CSc1nc2ccccc2nc1C,-4
Cc1ccc(C2(O)CCN(c3cncc(C(=O)N4CCCC4)n3)CC2)nc1,-1
Cc1ccc(CN2CC[C@H]3CN(C4CCOCC4)CCO[C@@H]3C2)o1,36
c1cc(-c2cccc3ccnn23)cc(-n2cnnc2)c1,-52
CCCc1ccc(S(=O)(=O)N2CCc3nc(-c4cccc(OC)c4)sc3C2)cc1,2
O=S(=O)(NCc1ccccc1)N1CCc2[nH]nc(C3CCC3)c2C1,-5
Cc1ccc(NC(=O)c2ccc(CN3CCN(C)CC3)cc2)cc1Nc1nc(-c2cccnc2)cs1,4
Cc1cc(C)cc(S(=O)(=O)N2CCC(c3nc(C(=O)N4CCCC4)c(C)o3)CC2)c1,22
CCOCC(=O)N1CC[C@@H]2OCC[C@@]2(c2nc(C)no2)C1,142
S=C(Nc1ccc(C2CCCCC2)cc1)N1CCSCC1,40
CN(Cc1ccoc1)c1nc(-c2cccnc2)nc2c1cnn2C,-58
CC12CCC(C(=O)NCCCNC(=O)[C@]34CC[C@](C)(C(=O)O3)C4(C)C)(OC1=O)C2(C)C,-16
Cc1ccc(-c2coc(-c3ccc(NC(=O)NCCc4ccccc4)cc3)n2)cc1,14
Cc1nc(C)c(C(=O)N2CCn3c(C(N)=O)cnc3C2)s1,-6
CN1CCn2nc(C(=O)N(C)Cc3nc4ccc(Cl)cc4[nH]3)cc2C1,56
COc1ccc(CC(=O)N2CCC3(CC2)Nc2cc(F)ccc2-n2cccc23)cc1OC,59
COc1ccccc1CNC(=O)Cn1c(=O)cc(-c2nc(C)no2)c2ccccc21,12
C=CCN1CCOC2(CCN(c3nccs3)CC2)c2ccccc21,9
CCOC(=O)c1c(NC(=O)c2sc3nc(C)cc(C)c3c2N)sc2c1CCCC2,17
CCC1CC(C(F)(F)F)n2nc(C3CCCN3S(=O)(=O)c3ccc(F)cc3)cc2N1 (stereo not drawn),148
COc1cccc(CN(C)C(=O)CCc2nnc(C3(c4ccc(Cl)cc4)CCC3)o2)c1,50
C[C@H](NC(=O)C[C@@H]1CC[C@@H]2[C@H](COC[C@@H](O)CN2Cc2ccc(C(F)(F)F)cc2)O1)c1ccccc1,18
Cc1cccc(-c2cnc(-c3ccncc3)nc2C2CCN(C(=O)c3ccoc3)CC2)c1,-44
CCSc1ncc(CN2CCN(c3nc(C)cnc3C)CC2)cn1,-49
O=C(C1CC(=O)N(C2CCCCC2)C1)N1CCc2nc(-c3ccccn3)[nH]c(=O)c2CC1 (stereo not drawn),96
CC(=O)c1ccccc1-c1ccc(C(=O)NCC2CCN(CC(C)C)C2)cn1 (stereo not drawn),6
COCCN1C[C@@H]2CCN(C(=O)c3ccccn3)CC[C@H]2S1(=O)=O,-3
O=C(CN1C(=O)CCc2cc(Br)ccc21)NCc1cccnc1,2
O=C1CCC2(CCN(C(=O)C3CCOCC3)CC2)CN1,-21
CS(=O)(=O)N1CCc2ccc(=O)n(CC3CCOCC3)c2CC1,6
S=C(SCc1cc(Cl)cc2c1OCOC2)N1CCSCC1,-46
COC1COC2(CCN(C(=O)C3CC(F)(F)C3)CC2)C1 (stereo not drawn),34
CNC(=O)CN1CCC12CCN(C(=O)c1ccn(C)n1)C2 (stereo not drawn),-45
CN1C[C@@H]2C[C@H](C(=O)Nc3ccc4c(c3)OCO4)[C@@H](C1)O2,-51
O=C(C1=Cc2ccccc2OC=C1)N1CC(c2cccnc2)C1,50
O=C1Nc2ccccc2C12NCCc1c2[nH]c2ccccc12 (stereo not drawn),65
CC(C)N1c2ccccc2[C@H]2CN(S(=O)(=O)C3CC3)CC[C@@H]21,19
O=C(C1CC2C=CC1O2)N1CCCC(c2cc(C(F)F)n3ncnc3n2)C1 (stereo not drawn),22
CN(C)CC(=O)N1[C@H](CO)[C@H](c2ccc(C#CC3CCCCC3)cc2)[C@@H]1C#N,6
Cn1c(CNC(=O)C2(c3cccc(F)c3)CCCC2)nnc1SCc1ccccc1,-36
Cc1cc(Br)cc(Cl)c1OC(=O)c1ccno1,24
O=C(Cc1cccnc1)N1CC(=O)N2[C@H](C1)[C@@H](c1ccc(/C=C/c3ccccc3)cc1)[C@@H]2CO,-41
O=C1NCCOCc2cnnn2CC[C@@H]1Cc1ccc(F)cc1,-8
CN(C)C(=O)c1nc(CN2CCC3(CCCO3)CCC2=O)no1 (stereo not drawn),-29
COCC(NC1CSCCSC1)c1ccnn1C (stereo not drawn),-3
CCc1ccc(CNC(=O)c2c(O)c3cccnc3n(-c3cccc(F)c3)c2=O)cc1,39
COc1ccc2c3c(n(C)c2c1)[C@H](CO)N(S(C)(=O)=O)CC31CCN(C(=O)Nc2cccc(F)c2)CC1,6
Cn1nnnc1SCCNCC(=O)NC1CCCCCCC1,-3
COCC(=O)N1CCC2(CC1)NC(=O)c1ccccc12,5
CCOC(=O)CSC1=Nc2ccccc2C2=NC(CCC(=O)NCCc3ccccc3)C(=O)N12 (stereo not drawn),2
C[n+]1ccc(C(=O)NCc2ccccc2)cc1,14
O=C(CN1CCN(Cc2ccc3c(c2)OCO3)CC1)N1c2ccccc2Sc2ccccc21,17
O=C(O)c1ccccc1C(=O)Nc1ccc(Oc2ccccc2)cc1,53
COc1ccc2ccccc2c1-c1nccn1CCN1CCOCC1,0
COc1cc(-c2nccn2CCN2CCN(C)CC2)cc2c1OCO2,2
Cc1nn(-c2ccccc2)c2sc(C(=O)NCCc3ccccc3)cc12,-35
Cc1n[nH]c(C)c1Cc1ccc(N)cc1,-4
CC(C)OC(=O)c1cc2c(ccn2C)n1CCC#N,-63
COc1ccc(F)cc1C(=O)Nc1cnc2n1CCCC2,-5

# Additional records follow:
SMILES,Tg IFNy HTS
CCNC(=O)[C@@H]1C[C@@H](N)CN1C(=O)c1ccccc1-n1cccn1,-1
CC(Cn1cccn1)c1nc(CCc2ccccc2)nn1-c1ccccn1 (stereo not drawn),13
COc1ccc(C2CC(=O)Nc3c2c(-c2ccccc2)nn3C)cn1 (stereo not drawn),11
CCn1c(SCc2nc(-c3cccc(Cl)c3)oc2C)nc(=O)c2c(C(=O)OC)cc(C)nc21,i
CC(=O)c1ccc(N2CCCC(CO)(CCOc3ccccc3)C2)nc1 (stereo not drawn),14
COc1cccc(CN2C[C@H]3CN(C(=O)c4ccco4)CCO[C@@H]3C2)c1,-21
Cc1ccc(-c2nc(CCNC(=O)C(=O)Nc3ccc(C)c(Cl)c3)cs2)cc1,9
CC(=O)Nc1ccc(NC(=O)C(=O)NCCc2sc(-c3ccccc3)nc2C)cc1,47
CN(C)C1CCN(C(=O)c2ccncc2F)C(C(=O)O)C1 (stereo not drawn),-1
O=C(Nc1ccc(F)cc1F)N1CCCCC1CCn1ccnc1 (stereo not drawn),18
CCCC#Cc1ccc2c(c1)[C@@H]1[C@@H](CCN1Cc1cncnc1)[C@@H](CO)N2,-14
Cc1ccc(C)n1C(Cc1c[nH]c2ccccc12)C(=O)O (stereo not drawn),2
COc1cccc([C@@H]2CCN(Cc3cn[nH]c3C(=O)O)C[C@H]2O)c1,7
O=C(N[C@@H]1CN(c2ncc(F)cn2)[C@H]2COC[C@@H]12)c1cscn1,-7
O=C(c1ccncc1)N1CC[C@@H](c2ccc3ccccc3c2)[C@H](O)C1,6

# Quoted from the listing.
# Tg IFNy HTS with CN(C)C1CCN(C(=O)c2ccncc2F)C(C(=O)O)C1 (stereo not drawn) : -1
# Tg IFNy HTS with O=C(c1ccncc1)N1CC[C@@H](c2ccc3ccccc3c2)[C@H](O)C1 : 6
# Tg IFNy HTS with Cc1ccc(-c2nc(CCNC(=O)C(=O)Nc3ccc(C)c(Cl)c3)cs2)cc1 : 9
# Tg IFNy HTS with COc1ccc(C2CC(=O)Nc3c2c(-c2ccccc2)nn3C)cn1 (stereo not drawn) : 11

# Later entries:
SMILES,Tg IFNy HTS
CCOC[C@H]1CCC2C(CCN2Cc2ccc3c(c2)OCO3)O1 (stereo partly drawn),-6
CCCNC(=O)N[C@@H]1C=C[C@@H](CC(=O)N2CCN(C)CC2)O[C@@H]1CO,29
CS(=O)(=O)c1ccc(Cn2c3c(c4cc(F)cc(F)c42)CCCC3CC(=O)O)cc1 (stereo not drawn),-5&2
CC(C(=O)NC1CC2(CCCC2)Oc2ccccc21)c1n[nH]c(=O)c2ccccc12 (stereo not drawn),50
CCN1CCN(C(=O)c2ccc(-c3nc(CN4CCc5ccccc54)c(C)o3)cc2)CC1,-37
COc1ccc(Cn2c(C(C)OC)n[nH]c2=O)cc1 (stereo not drawn),55
Cc1ccc(Nc2cc(=O)[nH]n2C)cc1Cl,75
CCCC(=O)Nc1ccc2c(c1)OC[C@@H](C)NC[C@@H](C)[C@@H](OC)CN(C)C2=O,53
CCOc1ccc2nc(NS(=O)(=O)c3ccc(NC(C)=O)cc3)sc2c1,5
Cc1cc(C)n(CCCC(=O)N2CCNCC2C(=O)NC2CC2)n1 (stereo not drawn),4
O=C(c1ccc(F)cc1)N1CCN2C[C@H](OCC3CC3)C[C@@H]2C1,3
COc1cccc(OC)c1CN1CCCC1c1cncc(Nc2nnc(C)s2)n1 (stereo not drawn),-6
COc1ccc(Cl)cc1N1C(=O)c2cccnc2C1=O,2
COc1cc(CN2CCCC(C(=O)c3cccc(C(F)(F)F)c3)C2)cc2c1OCO2 (stereo not drawn),-43
Cc1cc(CN2CCN(C3CCN(C)CC3)CC2)n[nH]1,-43
O=C(CSCCO)N1CCc2ccccc21,16
C=C(C)Cn1cnc(-c2ccccc2)c1-c1c(C)n(C)n(-c2ccccc2)c1=O,1
O=C(NC(=S)NCc1ccccc1Cl)c1ccc(Cl)cc1Cl,-12
CC1(C)ONC(=O)N(CCc2cccs2)C1=O,1
COc1ccc(CN2CCC(c3cc(=O)[nH]c(C)n3)C2)cc1Cn1ccnc1 (stereo not drawn),17
O=C(c1ccc(NCCc2ncc[nH]2)nc1)N1CCC(Cn2cccn2)CC1,6
Clc1ccc(-c2nc3ccncc3[nH]2)cc1,99
Cc1nc(C(F)(F)F)nc(-c2ccc(S(C)(=O)=O)cc2)c1C,2
CC(=O)N1CCC(c2nnc3ccc(C(=O)CC4CCOCC4)cn23)C1 (stereo not drawn),1
Cc1oc(-c2ccc(C(=O)NC3CCCCCC3)cc2)nc1CN1CCN(c2ccccc2)CC1,-26
O=C(Nc1ccccc1)N1C[C@@H]2N[C@H](C1)C2c1ccc(-c2cccnc2)cc1 (stereo partly drawn),12
Cc1ccccc1CN1C[C@@H]2c3nc(N4CCCC(C)C4)ncc3CS(=O)(=O)[C@H]2C1 (stereo partly drawn),-86*
COc1cccc(-n2cc(CN(C)Cc3cnn(C)c3)cn2)c1,-3
CSCC[C@H](NC(C)=O)C(=O)Nc1cnc2n1CCCC2,1
Cc1ccc(CN2CCc3nc(N4CCOCC4)nc(NC(C)C)c3C2)s1,-98*
O=C(CSc1nc2ccccc2s1)N1CCN(S(=O)(=O)c2ccccc2)C1,5
CN1c2ccc(C3=CCCCC3)cc2[C@@H]2[C@@H](CCN2C(=O)c2ccc3c(c2)OCO3)[C@@H]1CO,-49
CN(Cc1ccon1)c1ccc(-c2nc(Cc3ccccc3)no2)cn1,24
CC1Oc2ccccc2N(CC(=O)N2C3CCC2CC2(C3)NC(=O)c3ccccc3N2)C1=O (stereo not drawn),-2
COc1ccc(CN(C)C[C@@H]2Oc3ccc(NC(=O)Nc4ccc5c(c4)OCO5)cc3CC(=O)N([C@H](C)CO)C[C@H]2C)cc1,-18
Cc1ccccc1N1CC2(CCN(C(=O)Nc3ccc(F)cc3)C2)CC1=O (stereo not drawn),-17
Cc1ccsc1CN(CC(C)C)C(=O)c1ccc2nccn2c1,-5
Cn1cccc1-c1cc(C(=O)N2CCc3nc[nH]c3C2)[nH]n1,5
Cc1c(C2CC(=O)Nc3n[nH]c(C4CCC4)c32)c(=O)n(-c2ccccc2)n1C (stereo not drawn),-61
CCNC(=O)C1(Cc2ccc(-c3ccccc3F)cc2)CCN(Cc2cccnc2)CC1,-51
Cn1nnnc1SCCCNCc1ccc2c(c1)OCO2,15
CCN1CCC2(CN(C(C)=O)CC23CCN(S(=O)(=O)CC(C)C)CC3)C1=O (stereo not drawn),-4
COc1ccc(NC(=O)Cn2c(=O)cc(C(=O)N3CCCCC3)c3ccccc32)cc1Cl,2
COc1ccc2c3c(n(C)c2c1)[C@@H](CO)N(C(=O)C1CCC1)CC31CCN(CC2CCCC2)CC1,-23
CC(C)(C)[S@@](=O)N1Cc2cc(C(=O)N3CCOCC3)nc(-c3cccc(-c4ccccc4F)c3)c2[C@H]1CCO,33

# Reprinted at random: 7 records from the list, in no set order.
SMILES,Tg IFNy HTS
CCCC(=O)Nc1ccc2c(c1)OC[C@@H](C)NC[C@@H](C)[C@@H](OC)CN(C)C2=O,53
Cc1cc(CN2CCN(C3CCN(C)CC3)CC2)n[nH]1,-43
COCC(NC1CSCCSC1)c1ccnn1C (stereo not drawn),-3
Cc1oc(-c2ccc(C(=O)NC3CCCCCC3)cc2)nc1CN1CCN(c2ccccc2)CC1,-26
CCCNC(=O)N[C@@H]1C=C[C@@H](CC(=O)N2CCN(C)CC2)O[C@@H]1CO,29
CSCC[C@H](NC(C)=O)C(=O)Nc1cnc2n1CCCC2,1
Cc1ccc(NC(=O)c2ccc(CN3CCN(C)CC3)cc2)cc1Nc1nc(-c2cccnc2)cs1,4

# Continued:
SMILES,Tg IFNy HTS
O=c1ccc(-c2cccs2)nn1C1CN(S(=O)(=O)c2ccc3c(c2)OCCO3)C1,69
CSc1ccccc1NC(=O)CCC(=O)N1C[C@H]2CC[C@H]1C2,-47
CO[C@H]1CN(C)C(=O)c2ccc(NC(=O)NC(C)C)cc2OC[C@@H](C)N(Cc2ccc(-c3ccccn3)cc2)C[C@H]1C,-5
O=C(NC1CC1)c1nc(C(=O)N2CCN(c3ccccc3)CC2)cs1,-7
CCCCNC(=O)N1CCc2nc(N3CCOCC3)nc(NC3CC3)c2C1,-15
CCCn1c(=O)c2[nH]cnc2n(-c2ccc(Cl)cc2)c1=O,29&8

# An excerpt from above in order of molar mass, lowest first:
SMILES,Tg IFNy HTS
CCCn1c(=O)c2[nH]cnc2n(-c2ccc(Cl)cc2)c1=O,29&8
CSc1ccccc1NC(=O)CCC(=O)N1C[C@H]2CC[C@H]1C2,-47
O=C(NC1CC1)c1nc(C(=O)N2CCN(c3ccccc3)CC2)cs1,-7
